HSV augment: enhancers of HSV replication in host cells, fold increase, host cell viability; 220,000 tested, 0.005% active; AID 1956, 2009; HSV replication augmentation in cells; maximum fold increase;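 active = peak rise of 1.5-fold or more in the series; tested in PC3 cells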;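 note: first round at 10 µM; read as green reporter fluorescence; hits show the peak of a series up to 25 µM; 1 = signal of infected wells without compound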
GALR2 ag: GALR2 receptor agonists, primary screen, cell-based; AID 803, 2007; activation, %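 (tested at 5 µM)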; GALR2-expressing cells, agonist activation read-out; 140,000 tested, 0.48% active;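 active = above mean plus 3 SD of all compounds, about 5% in these data, not always enough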;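 note: 0% = vehicle buffer wells and 100% = reference agonist at full effect; tested in CHO reporter cells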
PKD1 kinase inh: inhibitors of human PKD1 kinase, biochemical, fluorescence polarization; Serine/threonine-protein kinase D1 (Homo sapiens), Q15139; PKD1 kinase fluorescence polarization assay; inhibition, %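 (about 10 µM by stock and volumes)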; 200,000 tested, 0.056% active;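 active = inhibition of 50% or more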;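 note: controls were vehicle for no effect and a reference inhibitor for full effect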
Target sequence (Q15139 whole entry, looked up): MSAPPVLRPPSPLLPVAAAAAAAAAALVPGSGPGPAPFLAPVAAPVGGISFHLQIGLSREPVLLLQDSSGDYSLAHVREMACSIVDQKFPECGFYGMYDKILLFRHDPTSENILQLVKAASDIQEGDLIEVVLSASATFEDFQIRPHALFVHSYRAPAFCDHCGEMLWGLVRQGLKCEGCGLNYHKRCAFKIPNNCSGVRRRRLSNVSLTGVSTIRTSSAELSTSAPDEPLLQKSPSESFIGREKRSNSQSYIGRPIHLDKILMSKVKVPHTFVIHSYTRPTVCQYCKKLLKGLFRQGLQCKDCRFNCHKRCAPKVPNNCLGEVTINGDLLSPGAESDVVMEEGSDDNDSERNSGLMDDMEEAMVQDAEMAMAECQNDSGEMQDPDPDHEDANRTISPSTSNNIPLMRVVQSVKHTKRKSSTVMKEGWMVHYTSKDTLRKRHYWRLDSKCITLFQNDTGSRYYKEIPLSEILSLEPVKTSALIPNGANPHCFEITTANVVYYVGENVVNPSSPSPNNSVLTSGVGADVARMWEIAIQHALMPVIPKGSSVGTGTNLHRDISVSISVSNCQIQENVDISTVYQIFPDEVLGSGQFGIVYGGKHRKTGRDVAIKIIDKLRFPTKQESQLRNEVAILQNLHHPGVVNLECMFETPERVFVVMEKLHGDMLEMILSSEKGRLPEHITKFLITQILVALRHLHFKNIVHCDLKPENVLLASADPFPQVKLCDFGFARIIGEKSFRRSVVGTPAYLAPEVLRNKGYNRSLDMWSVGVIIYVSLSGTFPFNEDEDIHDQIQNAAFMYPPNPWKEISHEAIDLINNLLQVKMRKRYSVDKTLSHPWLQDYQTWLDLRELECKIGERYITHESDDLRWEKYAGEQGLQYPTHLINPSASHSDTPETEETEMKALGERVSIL
RGS16-Gao: modulators of RGS16 binding to Galphao, primary screen, biochemical, human proteins, multiplexed bead flow cytometry | Regulator of G-protein signaling 16 (Homo sapiens) + Guanine nucleotide-binding protein … | bead-based flow cytometry RGS16-Galphao binding, fluorescence; actives lie on both sides | binding response (% of control), % at 10 µM | 220,000 tested, 0.38% active | AID 1441, 2008;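 active = below 25% or above 175%, edge rows of some plates excepted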;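 note: Galphao activated by GDP with aluminum fluoride before binding; 100% = wells without compound and 0% = beads without RGS; some results beyond the cut were filed as inactive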
Insulin prom inh: inhibitors of insulin promoter-driven GFP, primary screen, imaging, TRM-6 cells (human fetal islet line), eGFP reporter, cell count; reporter expression induced with tamoxifen; inhibition, % at 2 µM; 130,000 tested, 0.9% active; AID 1273, 2008;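 active = inhibition above the mean plus 3 SD, with well images judged a real hit on visual review, cut at about 60% in these data, passing the limit was not always enough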
Insulin prom inh cell count: second read-out of Insulin prom inh, no call of its own (marks repeat the call); normalized cell count, %; measured here: cell count, toxicity; reference of the scale not given here;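 cells exposed to compound for 48 h; stained nuclei by imaging scaled within each plate; lower means fewer cells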
HSV augment primary fold: further read-out of HSV augment, marked with its call; fold increase; compound at 10 µM; measured here: primary screen fold increase 10 uM; tested in PC3 cells;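 GFP signal in the first replicate; 1 = infected wells without compound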
* hit, by the source's call; i = inactive; · = not tested or not shown; [ ] = another dose, or the depositor's remark.

SMILES	HSV augment	HSV augment primary fold	GALR2 ag	PKD1 kinase inh	RGS16-Gao	Insulin prom inh	Insulin prom inh cell count
O=C1NC(CCc2ccccc2)C(=O)N1CCOc1ccccc1 (stereo unspecified)	i	0.96	·	4.3	100.9	·	·
CC1(c2ccccc2Cl)NC(=O)N(CC(=O)NCCC2=CCCCC2)C1=O (stereo unspecified)	i	1.01	·	-4.7	101.6	·	·
COc1ccccc1C(=O)N1CCC(N2CCN(c3ccccc3)CC2)CC1	i	0.93	·	·	96.8	·	·
O=C(N[C@@H](Cc1c[nH]c2ccccc12)C(=O)O)c1ccccc1Cl	i	1	·	2.5	108.2	-40.0	51.1
NC(=O)c1ccccc1NC(=O)/C=C/c1cccc(Cl)c1	i	0.83	-0.5	-13.5	93.7	23.3	121.9
O=C1CSC(c2ccccc2)N1Nc1nc(N2CCOCC2)nc(N2CCOCC2)n1 (stereo unspecified)	i	0.96	·	0.5	132.7	21.4	117.7
Cc1ccc(NC(=O)C2CCCN(c3ncccn3)C2)cc1F (stereo unspecified)	i	0.94	-4.2	-13.9	98.1	·	·
CCN(CC(=O)Nc1cccc(C(C)=O)c1)S(=O)(=O)c1ccc(OC)cc1	i	0.93	-2.0	-5.1	102.0	44.8	78.1
O=C(CP(=O)(O)CC(=O)c1ccccc1)c1ccccc1	i	0.97	·	1.9	107.6	-54.5	143.6
CC1CCN(CCc2nc3cc(NC(=O)NC4CCCCC4)ccc3n2C)CC1	i	0.75	-1.3	0.5	98.0	-7.7	137.1
NNC(=O)c1ccc(-c2ccccc2F)cc1	i	0.91	·	·	96.0	·	·
Cc1ccc(NC(=O)c2noc3c2CCCCC3)cc1	i	1.17	-4.1	3.6	99.9	·	·
O=C(NC1CCCCC1)C(c1ccncc1)N(C(=O)Cc1cccs1)c1ccccc1 (stereo unspecified)	i	1.01	·	-2.1	105.3	-85.4	80.9
O=C1CCCN1CN(C(=O)c1ccccc1)c1ccccc1	i	0.96	·	10.8	99.0	·	·
CCCCCCSC1=C(C#N)C(c2ccc(O)cc2)CC(=O)N1 (stereo unspecified)	i	0.9	-2.5	10.8	110.9	-42.4	116.5
CCCN1CCN(CCCNC(=O)CCNC(=O)Cn2ccc3ccccc3c2=O)CC1	i	0.78	-0.5	-2.2	230.4	31.2	67.1
N#CC(Sc1ccccn1)c1ccc(Cl)cc1 (stereo unspecified)	i	0.95	·	0.2	102.4	5.9	120.5
O=C(c1ccc(-n2cnnn2)cc1)N1CCOCC1	i	1.01	-0.5	0.2	114.2	17.6	86.9
CCOc1cc2[nH]c(=S)n(C3CCN(Cc4ccccc4)CC3)c(=O)c2cc1OCC	i	0.9	·	-7.2	98.3	-16.7	138.7
OCCN1CCN(CC(O)COCCOc2ccc(Br)cc2)CC1 (stereo unspecified)	i	0.86	-1.6	-12.6	98.4	7.7	111.6
C/C(=N\NC(N)=O)c1c(F)cccc1F	i	0.97	·	·	108.1	·	·
Cc1cc(NC(=O)COC(=O)CNS(=O)(=O)c2ccc(C)c(C)c2)no1	i	0.74	·	-3.1	97.5	7.1	159.1
OCC#CCSc1nnc(-c2ccncc2)o1	i	0.97	-1.5	-11.9	99.6	34.6	93.1
Cn1c(=O)c2c(-c3ccccc3)n(Cc3cccnc3)cc2n(C)c1=O	i	1.06	0.4	-16.8	57.6	0.0	147.4
Cn1c(Cc2cccs2)n[nH]c1=S	i	0.86	-1.6	-6.2	100.0	-37.5	136.4

Later entries
SMILES	HSV augment	HSV augment primary fold	GALR2 ag	PKD1 kinase inh	RGS16-Gao	Insulin prom inh	Insulin prom inh cell count
CCN(CC)CCN(Cc1cc2cccc(C)c2[nH]c1=O)C(=S)Nc1ccccc1	i	0.85	·	0.4	98.7	·	·
O=C(O)c1ccc(N2C(=O)Nc3ccccc3N2O)cc1	i	1.01	·	0.7	97.0	·	·
O=C(Nc1ccc2c(c1)CCC2)c1ccc(Cl)nc1	i	0.96	·	-3.3	104.6	29.4	120.5
Cc1onc(-c2c(Cl)cccc2Cl)c1C(N)=O	i	1.24	-2.1	1.9	114.2	·	·
O=C(CCC1CCCC1)Nc1ccc(C(=O)NCc2cccnc2)cc1	i	0.74	·	-6.5	106.5	·	·
Cc1ccc(C(=O)Cn2cnc3ccccc3c2=O)cc1C	i	0.74	-0.8	2.8	100.6	-31.0	129.4
O=C(NCCC1=CCCCC1)NC12CC3CC(CC(C3)C1)C2	i	0.87	-1.3	-5.8	108.6	-25.0	116.3
Cc1cc(C)nc(SCCS(=O)Cc2ccc(Cl)cc2)n1 (stereo unspecified)	i	0.96	-0.9	1.4	100.9	62.5	93.5
CCCN1CNC(=S)N(c2ccccc2OCC)C1	i	1.01	-0.6	-6.1	46.6	·	·
Cc1sc(NC(=O)CSc2nnnn2C)c(C#N)c1C	i	0.85	·	0.5	105.0	0.0	109.6
CCOc1ncccc1C(=O)Nc1ccc(S(=O)(=O)NC2=NCCCCC2)cc1	i	0.83	·	3.9	101.0	·	·
COc1ccc(N(CC(=O)NCCC2=CCCCC2)S(C)(=O)=O)cc1	i	0.96	-0.9	-1.5	93.5	-3.3	91.9
Cc1cc(Br)ccc1NC(=O)CN1C(=O)C2C3CC(c4ccccc4)C(C3)C2C1=O (stereo unspecified)	·	·	-0.7	-3.5	101.8	-19.4	48.8
CC(C)=C1SC(N2CCCCC2)=NC1=O	i	1	-1.1	1.6	86.4	3.5	116.0
Cc1ccc2sc(=O)[nH]c2c1	i	1.15	·	·	97.7	·	·
O=c1c2ccccc2[nH]c(=S)n1-c1cccc(S(=O)(=O)N2CCCC2)c1	i	0.89	-0.7	-6.5	95.8	·	·
Cn1c(C(=O)NCCOc2ccccc2Cl)cc(=O)n(C)c1=O	i	1	·	-2.2	98.8	-50.0	61.9
COc1ccc(N(C(=O)c2cccnc2)S(=O)(=O)c2ccc3c4c(cccc24)C(=O)N3C)cc1	i	0.93	-3.0	-3.3	99.2	-18.8	120.2
CN1CCC(=NNC(=O)c2ccco2)CC1	i	0.96	-1.4	-10.7	103.0	·	·
CCCOC(=O)c1cccc(Nc2nc(-c3cccnc3)nc3ccccc23)c1	i	0.54	0.9	-7.5	99.0	·	·
CCOc1ccc2nc(SC(CC)C(=O)Nc3cc(C)on3)sc2c1 (stereo unspecified)	i	1.08	-1.0	4.8	107.2	·	·
COc1ccc(CN(CC2CCCO2)S(=O)(=O)c2ccc(C(=O)O)cc2)cc1OC (stereo unspecified)	i	0.92	-0.9	-1.5	95.7	18.2	133.3
O=C(Nc1ccccc1C(=O)N1CCOCC1)c1ccco1	i	0.93	-1.5	1.6	101.9	·	·
Cn1c(=O)c2c(nc(NCCc3ccccc3)n2Cc2ccc(F)cc2)n(C)c1=O	i	0.66	-0.5	-15.0	101.1	·	·
O=c1cc(O)nc(SCc2ccc(Cl)cc2)[nH]1	i	0.69	-1.6	-1.6	98.3	·	·

(more compounds)
SMILES	HSV augment	HSV augment primary fold	GALR2 ag	PKD1 kinase inh	RGS16-Gao	Insulin prom inh	Insulin prom inh cell count
CC(NC(=O)Cn1c(=O)[nH]c2ccsc2c1=O)C12CC3CC(CC(C3)C1)C2 (stereo unspecified)	i	0.85	-1.7	-1.6	100.5	-31.4	100.0
CC(C)(C)c1cnnn1-c1ccc(-c2csc(N)n2)cc1	i	0.66	-2.1	-11.9	116.1	·	·
CS(=O)(=O)N(CC(=O)NCc1ccncc1)Cc1ccc(Cl)cc1	i	1.03	-0.4	6.7	100.0	50.0	92.5
CCn1c(SCC(=O)Nc2cccc(NC(=O)c3ccco3)c2)nnc1-c1cccs1	i	0.89	-1.9	3.1	102.8	-50.0	97.2
O=Cc1ccc(Oc2cc(-c3ccccc3)nc(-c3ccccc3)n2)cc1	i	0.99	-0.8	-11.7	105.6	14.3	218.9
CC(NC(=O)COC(=O)/C=C/c1ccc([N+](=O)[O-])cc1)c1ccccc1 (stereo unspecified)	i	0.75	-0.8	-9.5	133.6	·	·
O=C(Nc1ccc(-c2ccc3nncn3n2)cc1)C1CCCC1	i	0.91	·	0.8	101.6	41.7	124.7
Cc1ccccc1C(=O)N1CCN(c2ccccn2)CC1	i	0.977	-1.6	-5.9	97.1	·	·
Cc1cccc2[nH]c(CN(C)Cc3nc(CC4CC4)no3)nc12	i	1	·	2.4	104.8	·	·
Cc1c(N2C(=O)/C(=C/c3cccc4ccccc34)SC2=S)c(=O)n(-c2ccccc2)n1C	i	0.88	-1.1	5.2	·	-20.0	117.7
CC(C)C(=O)NC(=S)N(Cc1ccccc1)Cc1ccccc1	i	1.16	-0.3	-11.6	184.0*[activator]	-32.3	82.8
CCOC(=O)N/N=C/c1c(C)nn(-c2ccccc2Cl)c1Cl	i	1.03	1.0	-10.7	104.6	·	·
O=C(NCCO)C(O)C(O)C(=O)NCCO (stereo unspecified)	i	0.85	·	-0.5	107.0	23.1	87.4
O=C(NCCCn1ccnc1)c1cc2nc(-c3ccc(Br)cc3)cc(C(F)(F)F)n2n1	i	0.45	-1.6	-8.3	105.6	10.0	141.9
O=C(CN(c1ccc(F)cc1)S(=O)(=O)c1ccc2c(c1)OCCO2)Nc1ccc2c(c1)OCO2	i	1.11	0.9	-11.7	98.6	68.2	27.5
CC1=C(C(=O)Nc2ccccc2)C2(CCCCC2)C(C#N)=C(S)N1	i	1.18	-0.1	-3.5	91.0	16.7	80.6
CC(C)c1cccc(C(C)C)c1OCCCCN1CCCC1	i	0.85	-0.6	-6.4	·	-71.0	92.7
C=CCn1c(=S)[nH]c2scc(-c3cccs3)c2c1=O	i	0.85	·	0.8	94.5	55.6	88.3
COc1ccc(CC(=O)Nc2cccc(SC)c2)cc1OC	i	1.11	·	-6.2	99.4	-46.0	131.0
COc1ccc(C2Oc3ccccc3C3=C2C(c2cccs2)n2ncnc2N3)cc1 (stereo unspecified)	i	0.98	1.0	-5.7	98.3	17.2	87.2
CN(C)C(=S)Nc1cccc(-c2n[nH]c(=S)o2)c1	i	0.92	·	-0.4	104.4	-11.8	78.8
COC(=O)c1c(C)oc(C)c1S(=O)(=O)NCc1cccs1	i	1.13	·	·	95.4	·	·
Cc1cc(OCCCCCN2CCCC2)ccc1Cl	i	0.83	·	-0.7	99.3	36.8	92.1
O=C(NCCN1CCN(Cc2ccccc2)CC1)Nc1cc(Cl)cc(Cl)c1	i	0.81	·	·	99.9	·	·
O=C(COC(=O)CCC(=O)c1ccc(F)cc1)NCc1ccco1	i	0.71	·	-6.6	98.0	·	·

Compound profiles, as listed above.
Profile of CCn1c(SCC(=O)Nc2cccc(NC(=O)c3ccco3)c2)nnc1-c1cccs1 = HSV augment: i; HSV augment primary fold: 0.89; GALR2 ag: -1.9; PKD1 kinase inh: 3.1; RGS16-Gao: 102.8; Insulin prom inh: -50.0; Insulin prom inh cell count: 97.2
Profile of O=C(NCCO)C(O)C(O)C(=O)NCCO (stereo unspecified) = HSV augment: i; HSV augment primary fold: 0.85; GALR2 ag: ·; PKD1 kinase inh: -0.5; RGS16-Gao: 107.0; Insulin prom inh: 23.1; Insulin prom inh cell count: 87.4

Two compounds from above with just GALR2 ag and Insulin prom inh cell count:
Molecule	GALR2 ag	Insulin prom inh cell count
C=CCn1c(=S)[nH]c2scc(-c3cccs3)c2c1=O	·	88.3
CN(C)C(=S)Nc1cccc(-c2n[nH]c(=S)o2)c1	·	78.8

(further entries)
SMILES	HSV augment	HSV augment primary fold	GALR2 ag	PKD1 kinase inh	RGS16-Gao	Insulin prom inh	Insulin prom inh cell count
C=CCNC(=O)NC(=O)COC(=O)CC(NC(N)=O)c1ccc(Cl)cc1 (stereo unspecified)	i	0.98	-0.9	-8.3	105.0	18.8	131.6
O=c1oc2ccccc2c2nccnc12	i	0.93	0.2	0.8	61.6	-15.8	128.4
Cc1ccnc(NC(=O)CCC(=O)N(CC(=O)NCc2ccccc2)c2ccc3c(c2)OCO3)c1	i	1.02	-1.8	7.7	101.1	-327.6	47.7
O=C(O)CCCc1nc(-c2ccccc2)no1	i	0.46	-3.5	-3.9	67.7	32.4	45.9
C=CCSc1nc(O)c(C2OC(=O)c3c2ccc(OC)c3OC)c(=O)n1-c1ccccc1 (stereo unspecified)	i	1.01	·	·	103.4	·	·
CC(C)(C)OC(=O)N1CCC(CNC(=O)c2ccc(F)cc2F)CC1	i	0.92	·	·	93.5	·	·
CCc1ccccc1N1C(=O)[C@@H]2Cc3ccccc3CN2C1=O	i	1.22	·	·	97.8	·	·
COc1ccccc1N1CCN(Cc2nc(-c3ccc(F)cc3)oc2C)CC1	i	0.98	·	-6.3	100.0	·	·

High-throughput results from PubChem.
